# From PubChem
# Mtb growth: M. tuberculosis H37Rv growth inhibitors, H37Rv strain (AID 1626); actives 0.95% (n = 220,000); one-dose inhibition, % at 10 µM; IC50 in µM for titrated hits; M. tuberculosis H37Rv growth inhibition; higher % means a stronger effect;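 active = confirmed in a dose series; inconclusive = inhibition above 80% but not taken into the dose series; inactive = below 80% or under 30% at every dose of the series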;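 note: bacteria incubated seven days before Alamar blue readout; 0% = bacteria only wells and 100% = bacteria with antibiotic wells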
# YopH PTP inh: YopH tyrosine phosphatase inhibitors, primary screen, biochemical, fluorescence Ex485/Em525; AID 898, 2007; actives 0.16% (n = 140,000); inhibition, %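 (about 10 µM by stock and volumes)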;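 active = inhibition of 50% or more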;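 note: controls were vehicle for no effect and minimum signal wells for full effect; inactives centre near -20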
# Mtb betalactam: beta-lactam sensitization of Mtb H37Rv, H37Rv | M. tuberculosis H37Rv growth with meropenem, percent inhibition; hits of this screen are not shown here | actives 0.27% (n = 330,000) | inhibition, % at 25 µM | AID 434955, 2010;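 active = about 74% or more and at least 40 points above the plate without the antibiotic, then above 30% in a dose series; inconclusive = first-round hits that could not be retested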;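 note: growth measured after seven days incubation then overnight dye step; 0% = bacteria only wells and 100% = bacteria with antibiotic; twin plates without the antibiotic show which effects depend on it; some results filed as inactive read as strong as hits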
# RecA splice inh: Mtb RecA intein splicing inhibitors, primary screen, biochemical, fluorescence, HTS | Protein RecA (Mycobacterium tuberculosis (strain ATCC 25618 / H37Rv)), P9WHJ3 | inhibition, %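 (about 9 µM by stock and volumes)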 | cell-free RecA intein splicing | AID 2221, 2009 | actives 0.75% (n = 290,000); in the data active = inhibition above about 30%; inconclusive = no clear call, values can overlap the other calls;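 note: 0% = vehicle wells and 100% = reference inhibitor control wells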
# Target sequence (P9WHJ3 whole entry, looked up, canonical isoform): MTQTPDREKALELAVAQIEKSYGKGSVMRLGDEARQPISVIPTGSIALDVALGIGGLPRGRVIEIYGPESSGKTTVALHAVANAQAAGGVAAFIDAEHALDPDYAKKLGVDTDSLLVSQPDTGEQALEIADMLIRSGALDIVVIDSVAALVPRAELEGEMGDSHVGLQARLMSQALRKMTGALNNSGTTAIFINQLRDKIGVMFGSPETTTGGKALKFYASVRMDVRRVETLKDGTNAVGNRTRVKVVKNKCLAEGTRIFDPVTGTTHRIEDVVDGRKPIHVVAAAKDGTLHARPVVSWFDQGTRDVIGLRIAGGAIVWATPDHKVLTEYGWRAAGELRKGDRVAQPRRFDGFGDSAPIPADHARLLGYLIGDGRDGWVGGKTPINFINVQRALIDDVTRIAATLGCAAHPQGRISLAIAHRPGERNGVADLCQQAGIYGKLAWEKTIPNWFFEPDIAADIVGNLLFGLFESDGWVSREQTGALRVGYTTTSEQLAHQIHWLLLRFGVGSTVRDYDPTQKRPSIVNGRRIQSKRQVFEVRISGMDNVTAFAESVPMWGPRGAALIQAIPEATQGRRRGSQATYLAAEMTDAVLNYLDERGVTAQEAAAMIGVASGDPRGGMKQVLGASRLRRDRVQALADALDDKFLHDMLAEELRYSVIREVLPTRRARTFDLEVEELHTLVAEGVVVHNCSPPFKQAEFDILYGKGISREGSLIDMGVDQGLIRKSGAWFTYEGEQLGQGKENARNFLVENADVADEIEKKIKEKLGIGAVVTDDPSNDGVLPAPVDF
# Arbovirus inh: antivirals against arbovirus infection, primary screen, cell-based, full library, 10K replicate subset | actives 0.37% (n = 200,000) | inhibition, % at 10 µM | arbovirus infection cell-based antiviral screen;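 active = inhibition from about 30%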;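 note: bluetongue infection of BSR cells; cell survival read as ATP light after 72 h; 0% = infected wells without compound and 100% = uninfected wells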
# Arbovirus inh repeat: second read-out of Arbovirus inh, no call of its own (marks repeat the call); inhibition, %; measured here: 10K subset replicate screen; many hits read low in the repeat;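 first of two repeat runs on a subset; 0% = infected and 100% = uninfected wells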
# Active calls of the source: *; ? = inconclusive; · = not tested or not shown. Not all compounds are listed, so the mix of outcomes need not match the whole.
SMILES,Mtb growth,YopH PTP inh,Mtb betalactam,RecA splice inh,Arbovirus inh,others
CSc1cccc(NC(=O)C2CCCN2S(=O)(=O)c2ccc3c(c2)CCC(=O)N3)c1 (centres undefined),-1%,-24,-1,·,-8,
CCc1ccc(NC(=O)CSc2nnc(CC)c(CC)n2)cc1,?,-3,64,-1.1,0,
COc1ccc(C)cc1S(=O)(=O)N1CCCCC1,1%,-52,1,0.1,4,
CC(C(=O)NN)n1nnc(N2CCOCC2)n1 (centres undefined),-1%,·,-1,0.3,·,
Cc1cc(C)c(C(=O)COC(=O)CNC(=O)c2ccccc2C)c(C)c1,·,·,1,1.1,·,
COc1ccc(-c2cc3c(=O)n(CC(=O)NCc4ccc(C)cc4)ncn3n2)cc1,·,·,0,-0.4,·,
CCOc1ccc(N=c2cc(-c3ccc(OC)cc3)oc3ccccc23)cc1,?,-12,·,5.2,21,
O=C(NCc1cccs1)C(=O)c1c[nH]c2ccccc12,14%,·,0,-1.5,4,
O=C(COc1cccc(F)c1)Nc1ccc2[nH]c(=O)[nH]c2c1,-5%,·,0,2.6,-3,
COc1ccc(S(=O)(=O)N(C)CC(=O)Nc2ccc3c(c2)OCCO3)cc1,·,·,-8,-0.8,·,
Cc1ccc(NC(NC(=O)c2ccccc2[N+](=O)[O-])C(Cl)(Cl)Cl)cc1 (centres undefined),7%,-17,?,-5.3,-4,
Fc1ccc(NC(=S)Nc2ccc(F)c(Cl)c2)cc1Cl,?,5,92,10,-26,
CC12CCC(=O)N1C(C(=O)Nc1cc(S(=O)(=O)N3CCCCCC3)ccc1OCC(F)(F)F)CS2 (centres undefined),·,·,7,3.0,·,
O=S(=O)(Nc1ccc2c(c1)OCO2)c1ccccc1,3%,-12,-1,1.8,1,
CCOC(=O)c1cc(CC)sc1NC(=O)CCC(=O)O,0%,-17,-16,4.9,3,
CN(CCCC(=O)NCCc1ccccc1)S(=O)(=O)c1ccc([N+](=O)[O-])cc1,·,·,-6,-0.4,·,
CC1(C)C2([N+](=O)[O-])CN3CC1([N+](=O)[O-])CN(C2)C3c1ccc(O)c(O)c1 (centres undefined),-9%,·,0,-3.6,·,
COc1ccc(S(=O)(=O)N2CC(C(=O)O)Oc3ccccc32)cc1 (centres undefined),·,·,10,-4.2,·,
CCOC(=O)c1ccc(NC(=O)c2nn(C)cc2Br)cc1,0%,-45,1,-0.7,-5,Arbovirus inh repeat=-4
COc1ccc(Cc2nc(-c3ccccn3)no2)cc1,4%,11,0,1.7,7,
COc1ccccc1N1CCN(/N=C\c2cccnc2)CC1,·,·,-3,-2.2,·,
CCN(CC(=O)Nc1ccc(NC(C)=O)cc1)C(=O)Cc1cccc2ccccc12,·,·,-1,1.7,·,
CC(=O)Oc1ccc(NC(=O)CCC2CCCCC2)c(C(=O)O)c1,16%,-27,10,-8.6,7,
CC#CCCCC(=O)Nc1cccc(C(=O)O)c1,-7%,-37,-2,-0.7,4,
O=C(c1cn(-c2ccccc2)nc1-c1ccc(Cl)cc1)N1CCOCC1,4%,-26,-2,1.4,-9,
# The list goes on:
SMILES,Mtb growth,YopH PTP inh,Mtb betalactam,RecA splice inh,Arbovirus inh,others
COC(=O)C1(C(=O)OC)NOC2C(=O)N(c3ccccc3)C(=O)C21 (centres undefined),3%,-33,2,-1.7,9,
Cc1ccc(Nc2nc(N)nc(CSC(=S)N3CCOCC3)n2)cc1,2%,2,-20,5.2,2,
COc1ccccc1CC(NC(C)=O)C(=O)N1CCN(C(=O)Nc2ccccc2Cl)CC1 (centres undefined),3%,-21,-6,-0.6,0,
CC(C)Oc1cccc(-c2cc(C(=O)NN3CCOCC3)c3ccccc3n2)c1,·,·,-7,1.6,·,
Cc1nc2cc(C(=O)OCC(=O)NC(C)C(C)C)ccc2n1-c1ccccc1 (centres undefined),-7%,-15,-5,1.6,-2,
O=C(N/C(=C\c1ccc(O)cc1)C(=O)N1CCCCC1)c1ccccc1,·,·,-10,0.0,·,
CCC(Oc1ccccc1)C(=O)Nc1ccsc1C(=O)OC (centres undefined),-2%,-18,61,14,-8,
COc1ccc(Oc2ncnc3sccc23)cc1,5%,·,-4,0.9,-4,
O=C(c1ccco1)N1CCN(C(=O)C2CCCc3c2[nH]c2ccc(Cl)cc32)CC1 (centres undefined),-13%,-6,61,-3.3,1,
O=C(COC(=O)c1ccc(Cl)c(Cl)c1)Nc1cccnc1Cl,-3%,-21,-5,-4.1,4,
Cc1oc2ccc(OCc3ccc(Cl)cc3)cc2c1C(=O)O,7%,·,14,1.9,·,
CC(C)(C=O)C1=CC(=O)c2ccccc2C1=O,0%,17,-6,·,-42,
Cc1c(C)c2ccc(OCC(=O)N3C[C@H]4C[C@@H](C3)c3cccc(=O)n3C4)cc2oc1=O,·,·,-1,1.3,·,
COc1ccc(CCNC(=S)NCc2ccc(Cl)c(Cl)c2)cc1OC,6%,·,1,7.8,2,
COc1ccc(Cn2cnc3c(NS(C)(=O)=O)c(C)c(C)cc32)cc1,-1%,-39,4,2.5,8,
COc1ccc(NC(=O)c2ccc(-n3nc(C)c[n+]3[O-])cc2)cc1,-1%,-46,-8,1.7,-1,
COc1ccccc1C(=O)n1nc(-c2ccccc2)nc1N,-9%,-1,0,2.7,-2,
CCc1nnc(NC(=O)CCN2C(=O)C3CCCCC3C2=O)s1 (centres undefined),·,·,-19,-4.1,·,
OC(COCc1cccs1)CN1CCN(c2ccccc2Cl)CC1 (centres undefined),2%,-17,1,0.0,0,
C=CC[C@H]1CC(Cc2ccccc2)=C[C@H](CC=C)N1,-1%,-23,80,7.1,5,
CC(=O)Nc1cccc(/C(C)=N\NC(=O)c2ccc(Cn3nc([N+](=O)[O-])c(Cl)c3C)o2)c1,-3%,-18,-2,-1.0,5,
O=C(C1CN(S(=O)(=O)c2ccccc2)CCN1S(=O)(=O)c1ccccc1)N1CCCCCC1 (centres undefined),0%,-20,-4,-0.2,-3,
O=S(=O)(c1ccccc1)N1CCN(C(=S)NCc2ccccc2)CC1,-4%,·,-8,2.3,3,
CCOc1cc(S(=O)(=O)N2CCCC2)c(C)cc1C,5%,·,0,4.7,0,
Cc1cc(C)c2nc(Nc3nc(-c4ccccc4)cc(=O)[nH]3)nc(C)c2c1,2%,·,57,0.5,·,

# Quoted at random: 2 records from the list
SMILES,Mtb growth,YopH PTP inh,Mtb betalactam,RecA splice inh,Arbovirus inh,others
O=S(=O)(c1ccccc1)N1CCN(C(=S)NCc2ccccc2)CC1,-4%,·,-8,2.3,3,
CC(C)Oc1cccc(-c2cc(C(=O)NN3CCOCC3)c3ccccc3n2)c1,·,·,-7,1.6,·,

# Other results follow:
SMILES,Mtb growth,YopH PTP inh,Mtb betalactam,RecA splice inh,Arbovirus inh,others
Cc1nc(N)sc1-c1csc(Nc2ccccn2)n1,-13%,-30,·,1.0,-5,
COc1ccc(CNC(=O)CCS(=O)(=O)c2ccc3c(c2)oc(=O)n3C)cc1,·,·,2,-2.0,·,
Cc1cc(C)n(-c2nc(SCC(=O)Nc3nccs3)c3c4c(sc3n2)COC(C)(C)C4)n1,23%,-57,44,4.1,-7,
Cc1c(OC(=O)N(C)C)ccc2c1O/C(=C\c1ccco1)C2=O,·,·,12,-3.8,·,
COc1cc(/C=N/NC(=O)c2ccncc2)c([N+](=O)[O-])cc1OC,·,·,99,-0.5,·,
Cc1cccc(NC(=O)Cn2c(=O)oc3ccccc32)c1C,·,·,4,0.5,·,
COc1ccc(C)cc1NC(=O)C(=O)N/N=C(\C)CC(=O)Nc1cccnc1,-4%,-21,-1,-6.9,-3,
Cc1ccc(-n2c(C)cc(C(=O)CSc3nncs3)c2C)cc1,5%,-21,0,2.0,7,
Cc1cc(Nc2ccc(Br)cc2F)n2nc(C)nc2n1,-6%,-20,3,-0.2,-12,Arbovirus inh repeat=-9
COc1cccc(CNC(=O)CCNS(=O)(=O)c2ccc3c(c2)CC(C)N3C(C)=O)c1 (centres undefined),·,·,-8,-0.8,·,
COc1ccc(S(=O)(=O)N2CCCCCC2)cc1C(=O)N(C)CC(=O)Nc1cc(C)ccc1C,·,·,-2,-7.8,·,
Cc1ccc(C2=CCNCC2)cc1,6%,·,-3,8.5,2,
CCOc1ccc(/C=C/C(=O)N(CC)CC(=O)NCc2cccs2)cc1OC,·,·,-11,0.3,·,
CC(C)=C1C2CCC1C1C(=O)N(NC(=O)c3ccco3)C(=O)C21 (centres undefined),-7%,-29,15,-2.0,2,
Cc1ccc(NC(=O)NCCCc2ccccc2)cc1,8%,-13,-1,-4.5,0,
CCn1c(CSc2nc(C)cc(C)n2)nnc1SCC(=O)Nc1ccccc1,-1%,-30,5,-2.1,-1,
Cc1ccc(NC(=S)N(Cc2ccco2)C(C)c2cccs2)cc1 (centres undefined),2%,·,6,11,5,
COc1ccc(C(=O)NC2CC2)cc1OC1CCN(Cc2ccccc2F)CC1,·,·,-21,-2.8,·,
O=S(=O)(NCC(c1cccnc1)N1CCN(c2ccc(F)cc2)CC1)c1cccs1 (centres undefined),15%,-15,0,0.8,-4,Arbovirus inh repeat=2
CC(C)(C)NC(=O)CN(c1cccc([N+](=O)[O-])c1)S(=O)(=O)c1ccccc1,-4%,·,-14,-0.9,4,
COC(=O)c1cc(C#N)c(N(C)Cc2ccccc2)nc1C,3%,-17,-4,10,-9,
O=C(OCc1cc(=O)n2c(n1)sc1ccccc12)c1ccc(O)cc1,-3%,-4,-5,6.1,7,
CC(C)c1nc(SCC(=O)NCC2CCCO2)c2c(=O)n(C)c(=O)n(C)c2n1 (centres undefined),·,·,-3,-1.0,·,
O=c1[nH]nc(SCc2ccccc2)c(=O)[nH]1,-3%,-28,-4,-0.6,7,
O=C(Nc1ccccc1C(=O)Nc1ccc(F)cc1)c1ccco1,·,·,-1,2.1,·,
COc1ccc(N2CCN(S(=O)(=O)c3cn(C)cn3)CC2)cc1,·,·,4,-0.4,·,

# A run of entries taken from the entries so far:
SMILES,Mtb growth,YopH PTP inh,Mtb betalactam,RecA splice inh,Arbovirus inh,others
Cc1ccc(-n2c(C)cc(C(=O)CSc3nncs3)c2C)cc1,5%,-21,0,2.0,7,
Cc1cc(Nc2ccc(Br)cc2F)n2nc(C)nc2n1,-6%,-20,3,-0.2,-12,Arbovirus inh repeat=-9
COc1cccc(CNC(=O)CCNS(=O)(=O)c2ccc3c(c2)CC(C)N3C(C)=O)c1 (centres undefined),·,·,-8,-0.8,·,
COc1ccc(S(=O)(=O)N2CCCCCC2)cc1C(=O)N(C)CC(=O)Nc1cc(C)ccc1C,·,·,-2,-7.8,·,
Cc1ccc(C2=CCNCC2)cc1,6%,·,-3,8.5,2,
CCOc1ccc(/C=C/C(=O)N(CC)CC(=O)NCc2cccs2)cc1OC,·,·,-11,0.3,·,
CC(C)=C1C2CCC1C1C(=O)N(NC(=O)c3ccco3)C(=O)C21 (centres undefined),-7%,-29,15,-2.0,2,
Cc1ccc(NC(=O)NCCCc2ccccc2)cc1,8%,-13,-1,-4.5,0,
CCn1c(CSc2nc(C)cc(C)n2)nnc1SCC(=O)Nc1ccccc1,-1%,-30,5,-2.1,-1,
Cc1ccc(NC(=S)N(Cc2ccco2)C(C)c2cccs2)cc1 (centres undefined),2%,·,6,11,5,
COc1ccc(C(=O)NC2CC2)cc1OC1CCN(Cc2ccccc2F)CC1,·,·,-21,-2.8,·,
O=S(=O)(NCC(c1cccnc1)N1CCN(c2ccc(F)cc2)CC1)c1cccs1 (centres undefined),15%,-15,0,0.8,-4,Arbovirus inh repeat=2
CC(C)(C)NC(=O)CN(c1cccc([N+](=O)[O-])c1)S(=O)(=O)c1ccccc1,-4%,·,-14,-0.9,4,
COC(=O)c1cc(C#N)c(N(C)Cc2ccccc2)nc1C,3%,-17,-4,10,-9,
O=C(OCc1cc(=O)n2c(n1)sc1ccccc12)c1ccc(O)cc1,-3%,-4,-5,6.1,7,
CC(C)c1nc(SCC(=O)NCC2CCCO2)c2c(=O)n(C)c(=O)n(C)c2n1 (centres undefined),·,·,-3,-1.0,·,
O=c1[nH]nc(SCc2ccccc2)c(=O)[nH]1,-3%,-28,-4,-0.6,7,
O=C(Nc1ccccc1C(=O)Nc1ccc(F)cc1)c1ccco1,·,·,-1,2.1,·,
COc1ccc(N2CCN(S(=O)(=O)c3cn(C)cn3)CC2)cc1,·,·,4,-0.4,·,
